# D2 potentiator: potentiates the human D2 dopamine receptor allosterically | P14416 | AID 624464 | hit rate 0.23% among 360,000 | DiscoveRx D2 beta-arrestin cells, luminescence, 90 min; 100% = 57 uM dopamine signal | potentiation, % (concentration not given with the values); active = potentiation of 50% or more; inconclusive = 30% to 50%; inactive = 30% or less;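 note: compound concentration not given in the record; tested on top of an EC20 dose of dopamine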
#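 PathHunter beta-arrestin assay in DiscoveRx D2 cells. Compounds were added with an EC20 of dopamine (50 nM final) for 90 min at 37 deg C. Luminescence was read 1 h after detection reagent, with 57 uM dopamine as the EC100 control.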
# D2 ag: activates the human D2 dopamine receptor | P14416 | DiscoveRx PathHunter D2 beta-arrestin, luminescence, 90 min; 100% = 57 uM dopamine signal | activation, % (no concentration beside the values) | hit rate 0.084% among 360,000 | AID 624465; in the data active = activation above about 40%; inconclusive = about 15% to 40%; inactive = below about 15%; note: compound concentration not given in the record; the text of the record calls up to 30% inactive
#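 DiscoveRx PathHunter D2 beta-arrestin cells (2,100/well) attached overnight, then compound-stimulated 90 min at 37 C in HBSS/10 mM HEPES/0.1% Tween-20 buffer; beta-galactosidase complementation read by luminescence after 1 h at ambient temperature. Dopamine 57 uM final (EC100) as control.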
# Sfp inh: inhibitors of Bacillus subtilis Sfp phosphopantetheinyl transferase. Q9F4F7. Biochemical Sfp PPTase activity, qHTS. Potency, µM, for the others: max response, negative = inhibition, most hits filed as inhibitors. hit rate 3.5% among 310,000. AID 1490; active = well fitted inhibition curve with a large enough effect; inconclusive = small, poorly fitted or top-dose-only effect, or another doubt; inactive = no such curve, though single readings can be large or run the other way;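 note: the enzyme is Sfp with the accession as filed and its product quenches rhodamine fluorescence; potency is the fitted concentration of half-maximal effect; 0% = enzyme reaction without inhibitor and -100% = no enzyme wells; top concentration of the series not given in the record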
#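 Fluorescence-quenching assay: 15 nM Sfp-PPTase preincubated 15 min at room temperature with compound, then 5 uM rhodamine-CoA and 12.5 uM BHQ-2-labelled YbbR peptide added. Fluorescence (ex 525/em 598 nm) read at start and after 30 min; difference gives rate.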
# PINK1 modulator: PINK1 expression modulation | Potency, µM (top dose mostly 76.6 µM), for the others: at the highest dose activation (PINK1 increase), actives largely listed as activators | PINK1 immunofluorescence, high-content cytometry, 24 h | AID 624263 | hit rate 0.2% among 410,000; active = well fitted activation curve with a large enough effect; inconclusive = small, poorly fitted or top-dose-only effect; inactive = flat fitted curve, though single readings scatter; cell line not stated here;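 note: potency is the fitted concentration of half-maximal effect; % of control where 0% means no effect; nearly all actives have a fitted effect of over 65% in size; a mitochondrial uncoupler was the plate control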
#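 Stable cell line treated 24 h with compounds at 5 concentrations (CCCP controls), then fixed and immunostained for PINK1 plus nuclear and cell stains; PINK1 immunofluorescence quantified by laser-scanning microplate cytometry.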
# CtBP-E1A inh: inhibitors of CtBP/E1A interaction. AID 651724. activity change, % (concentration not given with the values). AlphaScreen GST-E1A/His-CtBP binding, 1536-well; stronger effect = lower value; control for the full effect not named in the record. hit rate 0.49% among 340,000; in the data active means activity change below about -65%; inconclusive means about -30% to -65%; inactive means above about -30%; note: % is set by controls: 0 for no effect and ±100 for the full control effect
#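 In 5 uL wells, 23 nL compound meets equimolar GST-E1A and His-CtBP (5X stock 125 nM each) for 2 h, 37 °C. Beads (5X, 50 ug/mL) then 1 h, 37 °C, dark.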
# Six1-Eya2 inh: Six1/Eya2 interaction inhibition; Q15475+O00167; AlphaScreen GST-Six1/His-Eya2 binding, biochemical; stronger effect = lower value; control for the full effect not named in the record; activity change, % (test concentration not listed); hit rate 0.56% among 360,000; in the data active = activity change below about -65%; inconclusive = about -30% to -65%; inactive = above about -30%; note: % is set by controls: 0 for no effect and ±100 for the full control effect; compound concentration not given in the record
#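 Compounds are tested against tagged Six1 and Eya2 proteins bridged by glutathione donor and nickel acceptor beads; after a one-hour incubation at 37 °C without light, AlphaScreen emission is recorded.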
# TRPV1 PAM: human TRPV1 potentiation; Q8NER1; TRPV1-expressing cells, Fluo-8 calcium influx, capsaicin EC20 potentiation; host cell line not named in the record; control for the full effect not named in the record; potentiation, % at 8.33 µM; hit rate 0.02% among 320,000; AID 540277; active means potentiation above 80%; inconclusive means 30% to 80%; inactive means below 30%; note: 0% is about no effect
# Target sequence (Q8NER1 whole entry, looked up): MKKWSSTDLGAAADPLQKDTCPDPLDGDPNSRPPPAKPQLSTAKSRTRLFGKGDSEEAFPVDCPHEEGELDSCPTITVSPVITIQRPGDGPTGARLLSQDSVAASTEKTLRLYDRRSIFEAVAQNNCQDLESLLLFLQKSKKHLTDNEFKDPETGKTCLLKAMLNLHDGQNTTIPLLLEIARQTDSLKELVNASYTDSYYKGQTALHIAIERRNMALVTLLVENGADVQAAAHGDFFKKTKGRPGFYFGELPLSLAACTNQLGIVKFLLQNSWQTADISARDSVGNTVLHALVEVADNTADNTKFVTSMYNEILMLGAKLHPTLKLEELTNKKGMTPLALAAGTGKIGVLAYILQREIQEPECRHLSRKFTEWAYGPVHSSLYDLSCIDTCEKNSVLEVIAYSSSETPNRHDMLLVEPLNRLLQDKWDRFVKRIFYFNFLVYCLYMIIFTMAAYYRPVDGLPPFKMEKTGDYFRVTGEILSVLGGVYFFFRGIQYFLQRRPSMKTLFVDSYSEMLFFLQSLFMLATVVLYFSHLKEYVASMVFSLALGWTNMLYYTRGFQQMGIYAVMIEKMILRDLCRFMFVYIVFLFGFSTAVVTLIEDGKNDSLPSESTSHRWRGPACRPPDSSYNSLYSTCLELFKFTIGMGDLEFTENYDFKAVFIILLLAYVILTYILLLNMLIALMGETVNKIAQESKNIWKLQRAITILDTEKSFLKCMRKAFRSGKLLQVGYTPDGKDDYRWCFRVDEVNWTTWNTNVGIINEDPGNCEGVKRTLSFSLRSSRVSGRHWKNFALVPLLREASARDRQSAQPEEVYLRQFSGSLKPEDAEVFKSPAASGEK
#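 Cells expressing TRPV1 were dye-loaded with Fluo-8 and read kinetically: 10 s baseline, 3 min after compound (agonist portion), then 2 min after EC20 capsaicin (allosteric enhancer portion). Calcium-bound dye fluorescence at 480/520 nm.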
# The depositor's hits bear a star; ? = inconclusive; · = not tested or not shown; [ ] = remark or other dose.
# Order of results – D2 potentiator	D2 ag	Sfp inh	PINK1 modulator	CtBP-E1A inh	Six1-Eya2 inh	TRPV1 PAM
> O=C(CCC(=O)Nc1cccc2ccccc12)N/N=C/c1ccco1
→ -2	-2.7	-4%	-0.5%	4	2	0
> O=C(O)CCc1ccc(-c2ccc(F)cc2)n1CCC(=O)O
→ 4	-1.0	?	·	8	2	5
> O=C(Nc1cc(C(=O)N2CCCC2)ccc1N1CCCC1)c1ccccc1F
→ -5	13	21%	-0.6%[38.3 µM]	4	-2	1
> COc1ccccc1N(CC(O)CN1CCC(C)CC1)S(=O)(=O)c1ccccc1 (stereo not given)
→ -19	-2.2	11%	-1.9%	3	1	-17
> Cc1ccccc1CSc1ccc2nnc(-c3ccccn3)n2n1
→ -8	-1.9	3%	1.2%	?	?	-9
> COc1ccc(CCNc2ccc(C(CC(N)=O)NC(=O)c3cc(OC)ccc3OC)cc2[N+](=O)[O-])cc1 (stereo not given)
→ -13	-4.8	6%	0.7%	-13	-15	11
> O=C(CCNS(=O)(=O)c1ccc(Br)cc1)NC1CCC(O)CC1 (stereo not given)
→ -2	-3.4	·	1.0%	·	6	-3
> CC1CCCC(C)N1C(=O)COC(=O)Cc1ccc(Cl)cc1 (stereo not given)
→ -7	-5.0	8%	0.3%	0	3	-5
> Cc1ccc(-c2cn(-c3ccc(SC(F)F)cc3)c3[n+]2CCC3)cc1
→ -34	-1.6	6%	-0.1%	-12	6	10
> Cc1ccc(Cc2c(C3CCCCC3)nc3c4ccccc4ccn23)cc1
→ -8	-6.7	·	?	1	0	·
> CC1=NN(c2ccccc2)C(=O)/C1=C/c1ccc[nH]1
→ -15	-3.7	7%	7.2%	4	-10	-2
> CCCC[C@H]1COCCS(=O)(=O)N1Cc1ccc(C)cc1
→ 2	0.0	8%	1.3%	2	4	-39
> CCc1nnc(NS(=O)(=O)c2ccc(NC(=O)c3ccccc3C)cc2)s1
→ -3	-9.9	7%	-1.0%	·	2	-19
> COc1ccc(/C=N/NC(=O)c2cc[n+]([O-])cc2)cc1OC
→ 0	1.7	19%	0.7%	0	17	-4
> Clc1ccc(CSc2nnc(CN3CCOCC3)n2-c2ccccc2)cc1Cl
→ 1	-3.9	10%	-1.4%	1	-2	-4
> CCCCCn1nc(C(=O)OCc2nnc(-c3ccccc3)o2)c2ccccc2c1=O
→ -8	-1.3	·	0.2%	0	8	-9
> O=C(COC(=O)c1ccc(S(=O)(=O)N2CCCC2)cc1)NCCc1ccc(F)cc1
→ 2	2.1	·	0.7%	6	0	·
> CC(C)n1c(N)c(C#N)c2ccc([N+](=O)[O-])cc2c1=O
→ -6	-8.8	2%	14%	-1	-3	·
> O=C(CN1C(=O)/C(=C\c2ccccc2Cl)Oc2ccccc21)NCc1cccnc1
→ -8	0.5	-3%	2.5%	-15	-4	-2
> CC(C)OC(=O)NC(C)(C)COC(=O)Nc1cccc(Cl)c1
→ -15	-3.0	10%	1.9%[38.3 µM]	8	7	0
> Cc1cc(C)c(NC(=O)COC(=O)C2CCN(c3ccc(C(F)(F)F)cn3)CC2)c(Cl)c1
→ -11	-2.3	·	-5.3%	9	-1	-8
> CCOc1ccc(C(=O)Nc2cc(C)ccn2)cc1
→ -10	-1.6	4%	-0.9%	1	5	-4
> CCOc1ccc(C(=O)N2CCCC(c3nc(-c4cccs4)no3)C2)cc1 (stereo not given)
→ -1	1.4	11%	-3.3%	4	-7	-7
> CCN(CC)C(=O)CSc1nc2ccccc2c(=O)n1CC1CCCCC1
→ -10	-11	-25%	0.9%	2	0	1
> O=C(COC(=O)Cn1cnc2ccccc21)Nc1ccc(OC(F)F)cc1
→ -5	-0.3	·	1.1%	0	2	·
> COc1ccc(CCNC(=O)CSc2n[nH]c(N)n2)cc1
→ -5	-6.0	10%	-2.1%	-2	3	1
> CCCCOC(=O)/C=C\C(=O)OCCCC
→ -2	-5.0	-2%	2.6%	-6	3	2
> Cc1ccc(-c2noc(CCC(=O)NC3CC3)n2)cc1
→ 3	0.5	12%	0.5%	10	-1	-6
> CCOC(=O)N1CCC(NC(=O)c2cc3c(-c4ccc(Cl)cc4)nn(C)c3s2)CC1
→ -3	-1.4	4%	5.6%	4	-1	-6
> CCOC(=O)C1=C(N)Oc2cc(C)n(CCc3ccc(OC)c(OC)c3)c(=O)c2C1c1cccnc1 (stereo not given)
→ -6	-0.1	-22%	0.0%	-7	-15	9
> O=C(Nc1ccc(Br)cc1)c1cccc(N2C(=O)C3CCCCC3C2=O)c1 (stereo not given)
→ 27	-1.1	8%	-2.3%	11	2	-17
> CN(CC(=O)Nc1c(Cl)cccc1Cl)C(=O)c1ccncc1
→ -2	2.9	13%	-0.3%	1	2	-3
> CN(CC(=O)Nc1ccc(F)c(F)c1F)C(=O)CCN1C(=O)C2CCCCC2C1=O (stereo not given)
→ -1	0.9	·	0.8%	1	4	-4
> Cc1c(C)c2cc(Cl)c(O)c(CN(C)C)c2oc1=O
→ -2	-1.3	7%	4.0%[38.3 µM]	7	5	19
> COC(=O)c1cccc(Cn2nnc3ccccc3c2=O)c1
→ 26	-5.2	14%	3.7%	10	0	15
> O=C(N1CCCCCC1)N1CCN(S(=O)(=O)N2CCCCC2)CC1
→ -2	0.4	11%	-0.1%	-8	-1	-32
> CCCCOc1ccc(C(=S)N2CCC(C(N)=O)CC2)cc1
→ 0	-0.1	-27%	1.1%	6	8	-5
> Cc1nc2c(nc1C)C(=O)c1ccccc1C2=O
→ -11	-1.1	·	-6.3%	?	-26	·
> COCCCN1C(=O)c2ccc(C(=O)OCC(=O)N(CCC#N)c3cc(C)cc(C)c3)cc2C1=O
→ 5	1.0	·	0.8%	2	-2	13
> COc1ccc(C(=O)Nc2cc(C)nn2-c2ccc(C)cc2)cc1
→ -7	-3.6	1%	1.8%	-5	-2	11
> COc1ccc(OC)c(C(=O)Cn2c3[n+](c4ccc(C(F)(F)F)cc42)CCCCC3)c1
→ -12	-2.8	15%	1.0%	3	14	9
> CC1(C)Cc2nc3oc4c(N(CCO)Cc5ccccc5)ncnc4c3cc2CO1
→ 9	0.3	6%	2.7%	-1	0	24
> CCOC(=O)c1ccccc1NC(=O)COc1ccccc1
→ 0	1.5	-9%	1.1%	40	42	-10
> Cc1ccc(S(=O)(=O)c2nc(S(C)(=O)=O)sc2N2CCC(C)CC2)cc1
→ -1	0.4	-20%	-1.2%	-1	-1	23
> CC(CN1CCOCC1)OC(=O)/C=C/c1ccccc1 (stereo not given)
→ -9	-1.2	-9%	-2.0%	6	4	-7
> Cc1cccc(OCC(=O)N/N=C/C=C/c2ccco2)c1
→ -9	-1.4	?	2.3%	3	-17	26
> COc1ccc2c(c1OC)C(=O)OC2n1c(O)c(N=NC(C)=O)c2ccccc21 (stereo not given)
→ -2	-6.3	1%	1.1%	3	0	1
> COc1ccc(C(CNC(=O)c2ccc(S(=O)(=O)N3CCCC3)cc2)N(C)C)cc1OC (stereo not given)
→ -5	-2.7	7%	3.8%	8	-13	1
> O=C(c1ccc(Cl)cc1)N1CCCC(c2ccccc2)=N1
→ -6	-1.4	10%	2.3%[38.3 µM]	9	1	-16
> CC(C)(C)NC(=O)C(=O)N/N=C/c1ccc(F)cc1
→ -10	-3.4	11%	1.1%	8	-2	-20
> O=C(CNC(c1ccccc1)c1ccccc1)Nc1cc([N+](=O)[O-])ccc1Cl
→ -13	-3.5	-22%	0.0%	-22	-25	4
> N=c1oc2ccc3ccccc3c2cc1-c1nc(-c2ccccc2)cs1
→ 25	0.3	5%	-1.4%	3	9	-1
> CCOC(=O)N1CCN(C(=O)CSc2nnc(COc3ccc(Cl)cc3)o2)CC1
→ 1	7.6	4%	-0.1%	-6	6	21
> Cc1cccc(NC(=O)[C@@H]2CCCN2S(=O)(=O)c2ccc(Cl)cc2)c1
→ -7	-4.0	·	0.7%	8	6	·
> CCN(CC)CCN1C(=O)C(=O)/C(=C(/O)c2cnn(-c3ccccc3)c2C)C1c1ccc(C)o1 (stereo not given)
→ -17	-4.9	0%	20%[38.3 µM]	-4	-1	10
> Cn1ncc(C#N)c1/N=C/N1CCOCC1
→ 3	-1.7	19%	0.6%	8	2	4
> Cc1ccc(C(=O)C[n+]2cc(Br)cc(Br)c2)cc1[N+](=O)[O-]
→ 2	-3.9	-4%	-1.8%	-4	1	11
> Cc1cc(C(c2nnnn2Cc2ccccc2)N2CCOCC2)c(C)n1-c1ccc2c(c1)OCO2 (stereo not given)
→ 0	-2.2	28µM*	-5.8%[38.3 µM]	11	-15	-6
> O=C(NCC1CCCO1)c1ccccc1-c1nc(-c2ccccc2)no1 (stereo not given)
→ -3	-2.5	3%	-1.4%	2	12	22
> COc1ccccc1CNC(=O)c1cccc(N(C)C)c1
→ -18	-6.5	-4%	3.0%	-3	-10	7

# Following part
# Order of results – D2 potentiator	D2 ag	Sfp inh	PINK1 modulator	CtBP-E1A inh	Six1-Eya2 inh	TRPV1 PAM
> O=C(COC(=O)Cc1ccc(Cl)cc1)NCc1ccc2c(c1)OCO2
→ -40	-12	·	2.2%	-7	-4	14
> CC1(C)CC(=O)CC(C)(C)N1OC(=O)c1ccncc1
→ 2	-2.0	4%	-4.0%[38.3 µM]	1	-1	-15
> COc1cc(OC)c2c(-c3ccccc3)cc(=O)oc2c1C(CCN1CCOCC1)c1ccc2c(c1)OCO2 (stereo not given)
→ -18	0.0	?	1.0%	-26	?	·
> CCOC(=O)CCCCCN(Cc1ccccc1)S(=O)(=O)c1ccc([N+](=O)[O-])cc1
→ -7	4.7	-2%	0.3%	?	?	-2
> CCN(CC)CCn1c2ccccc2c(=O)c2c(O)ccc(O)c21
→ 16	11	·	4.4%	0	-69*	·
> CC(=O)NC1CC2CCCC(C1)N2C(=O)Nc1c(C)cccc1C (stereo not given)
→ -6	0.7	·	0.9%	3	5	·
> CN1CCN(C(=O)c2ccccc2-c2nc(-c3ccc(Cl)cc3)no2)CC1
→ -15	-2.6	12%	·	7	2	-3

# Looked up one by one from the list above (three):
# Order of results – D2 potentiator	D2 ag	Sfp inh	PINK1 modulator	CtBP-E1A inh	Six1-Eya2 inh	TRPV1 PAM
> CCN(CC)CCn1c2ccccc2c(=O)c2c(O)ccc(O)c21
→ 16	11	·	4.4%	0	-69*	·
> CC(=O)NC1CC2CCCC(C1)N2C(=O)Nc1c(C)cccc1C (stereo not given)
→ -6	0.7	·	0.9%	3	5	·
> O=C(COC(=O)Cc1ccc(Cl)cc1)NCc1ccc2c(c1)OCO2
→ -40	-12	·	2.2%	-7	-4	14

# Compound activity from PubChem BioAssay.
